VACV E9 pol inh: vaccinia E9 polymerase processive synthesis inhibition | 46,000 tested, 0.94% active | normalized absorbance, % (concentration not given with the values) | in vitro processive DNA synthesis, absorbance read-out; stronger effect = lower value; some inactives read as strong as hits;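 active = replicate mean up to 90% and picked by the depositor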;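 also: 100% = median of the test wells of a plate; 100 nL library stock went into each well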
The depositor's hits bear a star; & = joins results of further samples.

| smiles | VACV E9 pol inh |
| --- | --- |
| Cc1nn(-c2cccc(C(F)(F)F)c2)c(Cl)c1/C=N/n1cnnc1 | 109 |
| Cc1ccccc1Cn1cc(S(=O)(=O)CC(=O)Nc2nccs2)c2ccccc21 | 95 |
| O=C(NCC1OCCc2ccccc21)C(c1ccccc1)c1ccccc1 (stereo unspecified) | 100 |
| CCc1ccc(NC(=O)N(Cc2c[nH]c3ccccc23)C2CCCC2)cc1 | 97 |
| O=C1CCN(c2ccccc2)N1 | 101&100 |
| CCN(CC)c1ncc2c(=S)[nH]c(=S)[nH]c2n1 | 103 |
| CCOc1ccc(S(=O)(=O)Nc2cnc3ccccc3c2)cc1 | 99 |
| CCOc1ccc(/C=N\n2c(C)nnc2C)cc1 | 100 |
| C=CCN1C(=S)SC2CS(=O)(=O)CC21C (stereo unspecified) | 98 |
| CCn1c(=O)cc(SCC(=O)NC2CCCc3ccccc32)c2ccccc21 (stereo unspecified) | 103 |
| Cc1ccc(F)cc1NC(=O)Cc1ncc(C(F)(F)F)cc1Cl | 109 |
| COc1ccc(/C=N/n2cnc3c([nH]c4ccc(OC)cc43)c2=O)cc1 | 100 |
| Cc1cc(C(=O)N(c2ccccc2)C(C)C2CC2)c(Cl)cc1Cl (stereo unspecified) | 100 |
| C=CCSc1nc2c(c(=O)n1Cc1ccco1)C1(CCCCC1)Cc1ccccc1-2 | 100 |
| CC(Oc1ccccc1)c1ccnc(N)n1 (stereo unspecified) | 112 |
| NCCSSCCN | 99 |
| Cc1nn(C(CC(=O)O)C(=O)O)c(C)c1Cl (stereo unspecified) | 100 |
| NC(=O)COc1ccc(Cl)cc1Cl | 101 |
| CC1CC(C)CN(C(=O)C2c3ccccc3C(=O)N(C)C2c2cccs2)C1 (stereo unspecified) | 92 |
| O=C(Nc1ccc(Cl)c(Cl)c1)Nc1nc(-c2ccccc2)cs1 | 100 |
| Cc1cc(C)cc(NC(=O)c2cc3ccccc3o2)c1 | 100 |
| Cc1c(OC2CCCCC2=O)ccc2c(-c3ccccc3)cc(=O)oc12 (stereo unspecified) | 102 |
| O=S(=O)(c1cccc2cccnc12)N1CCN(c2cccc(Cl)c2)CC1 | 101 |
| Cc1ccc(-n2nc(C)cc2NC(=O)CC#N)cc1 | 101 |
| Oc1c(Br)cc(C2N=C(c3ccccc3)NO2)cc1Br (stereo unspecified) | 81 |
| CC1CCCCN1CC(O)COc1ccc2ccccc2c1 (stereo unspecified) | 100 |
| O=C(c1cc2cc(Br)cc(Br)c2oc1=O)N1CCCCCC1 | 102 |
| Brc1cccc(-c2nnc3sc(CNCCc4ccccc4)cn23)c1 | 105 |
| CCCCN1COc2ccc3c4c(oc3c2C1)C(=O)c1ccccc1C4=O | 100 |
| COc1ccc(Nc2cc(C(=O)NCCC(C)C)c3ccccc3n2)cc1 | 99 |
| COc1ccccc1/C=C/C=N\N1CCN(c2ccccc2)CC1 | 99 |
| CC(C)Nc1nc(-c2ccccc2)nc2ccccc12 | 101 |
| CCCn1cc(S(=O)(=O)CC(=O)NC2CCCCC2)c2ccccc21 | 100 |
| NCCc1nc2ccccc2[nH]1 | 96 |
| COC(=O)c1ccc(OCC2c3cc(OC)c(OC)cc3CCN2C(=O)c2ccccc2)cc1 (stereo unspecified) | 101 |
| Cc1ccccc1Nc1cc(C)c(C#N)c2nc3ccccc3n12 | 101 |
| CCN(CC)C(=O)CSc1c2c(nc3ccc(Cl)cc13)CCCC2 | 102 |
| CC(C)OC(=O)Cn1c(=O)oc2ccccc21 | 102 |
| CCC(CO)NCC(O)CN1c2ccccc2Sc2ccccc21 (stereo unspecified) | 98 |
| CC(=O)Nc1ccccc1C(=O)c1n[nH]nc1-c1ccc(Cl)cc1 | 100 |
| NNC(=O)c1oc2nc(-c3ccccc3)cc(-c3ccccc3)c2c1N | 109 |
| CCCn1cnc2cc(NCc3cccs3)ccc21 | 98 |
| O=C(O)C1C2CC=CC2c2cc(Cl)cc3c2N1CC1CC=CC31 (stereo unspecified) | 100 |
| COc1cc(CN(C)C)c(O)c(CN(C)C)c1 | 100 |
| CC(C)n1c(CCNC(=O)c2ccccc2)nc2ccccc21 | 102 |
| O=C(CCN1N=C(c2ccccc2)CCC1=O)NCc1ccccc1 | 92 |
| NC(=O)C1CCN(C(=O)CSCc2cnn(-c3ccccc3)c2-n2cccc2)CC1 | 113 |
| CC(C)(C)/C(O)=C/c1nc2ccccc2oc1=O | 100 |
| CCC1=Nc2cc(C(=O)N3CCC4(CC3)OCCO4)ccc2Sc2ccccc21 | 103 |
| C#C[C@]1(O)CCC2C3CCc4cc(O)ccc4C3CC[C@@]21C (stereo partly specified) | 98 |
| COc1ccc(NC(=O)c2ccc3ncsc3c2)cc1 | 100 |
| Cn1nc(C(F)(F)F)c(-c2cccc(C(F)(F)F)c2)c1NC(=O)c1nccnc1C(=O)O | 92 |
| CNc1nc(-c2ccc(OC)cc2)c(C)s1 | 104 |
| COc1cc(/C=C/C2=NC(=O)C(C)(C)O2)ccc1O | 102 |
| Cc1ccccc1OCc1nc(C#N)c(NC(C)c2ccccc2)o1 (stereo unspecified) | 105 |
| COc1ccc(/C=C/C(=O)NCC(C)C)cc1OC | 100 |
| c1ccc(C(c2ccccc2)N2CC(Sc3nc4ccccc4s3)C2)cc1 | 101 |
| O=C(CN1c2cccc3cccc(c23)S1(=O)=O)NCc1ccccc1 | 100 |
| CCN1CCCC1CN1CNC(=S)NC1 (stereo unspecified) | 96 |
| COc1ccc(CN(C(=O)CN2C(=O)c3ccccc3S2(=O)=O)c2ccccc2O)cc1 | 107 |

(listing goes on)
| smiles | VACV E9 pol inh |
| --- | --- |
| COc1ccc(-c2noc(-c3cccc(F)c3)n2)cc1 | 95 |
| O=c1c2cc(N3CCOCC3)ccc2nc(SCc2ccc(F)cc2)n1CCc1ccccc1 | 78 |
| COc1cccc(NC(=O)CC2SC(N)=NC2=O)c1 (stereo unspecified) | 89 |
| CCOc1ccc(CCC(=O)O)cc1 | 96 |
| CCOC(=O)CSc1nc(Nc2ccccc2)c2cnc(N3CCOCC3)nc2n1 | 96 |
| Cc1cc(S(=O)(=O)NCC2CCN(C(=O)OC(C)(C)C)CC2)c(C)o1 | 100 |
| CCCN(C(=O)C1c2ccccc2C(=O)N(CC(C)C)C1c1cccs1)c1ccccc1C (stereo unspecified) | 100 |
| COc1ccc(-n2c(=S)[nH]c3ccccc3c2=O)cc1 | 98 |
| CC(C)C(=O)Nc1cccc(-c2nc3ccccc3s2)c1 | 100 |
| Cc1cccc(C(=O)NC(C(=O)O)C(C)C)c1 (stereo unspecified) | 97 |
| COc1ccc(C2C(C(=O)N3CC(C)CC(C)C3)c3ccccc3C(=O)N2c2ccc(OC)cc2)cc1 (stereo unspecified) | 109 |
| COC(=O)c1cc2c(s1)CN(c1cc(C)cc(C)c1)C2 | 90 |
| CSc1ccc(Cn2cccc2C2=NC(c3ccccc3)CO2)cc1 (stereo unspecified) | 97 |
| O=C1NC(=O)C(=Cc2ccc(Br)cc2)C(=O)N1 | 100 |
| CC12CCC(C(=O)Nc3ccc(Br)cn3)(OC1=O)C2(C)C (stereo unspecified) | 113 |
| Cc1n[nH]c(C)c1S(=O)(=O)N1CCCC(C(=O)NC2CCCCC2)C1 (stereo unspecified) | 101 |
| CCn1ccnc1C(O)c1ccc(OC)cc1 (stereo unspecified) | 104 |
| O=C(Nc1cc(F)ccc1F)c1cc(-c2ccc(F)cc2)nc2ccccc12 | 100 |
| Cc1cccc(-n2cnc3cc(C(=O)NC4CCCC4)ccc32)c1 | 93 |
| c1ccc(-c2cc(-c3ccco3)no2)cc1 | 100 |
| O=C(OCC(=O)N1CCCCC1)c1cc(-c2ccccc2)nc2ccccc12 | 89 |
| O=C(Cn1nc(Cc2cccnc2)c2ccccc2c1=O)Nc1ccc(Oc2ccccc2)cc1 | 101 |
| CC1CCc2ccc(F)cc2N1S(=O)(=O)c1cccs1 (stereo unspecified) | 98 |
| O=C(c1csc2c1CCCCC2)N1CCN(c2ccccc2)CC1 | 96 |
| CCOc1ccc(C=Nc2ccc3sc(C)nc3c2)cc1 | 100 |
| Cc1noc(C)c1NC(=O)NC1CCCCNC1=O (stereo unspecified) | 96 |
| CNC(=O)c1ccccc1S(=O)c1cccc2cccc(C(=O)O)c12 (stereo unspecified) | 109 |
| Cc1ccn2cc(-c3cccc(Cl)c3)nc2c1 | 100 |
| CCCC(CCC)C(=O)Nc1cccc(-c2nc3ccccc3[nH]2)c1 | 89 |
| C=CCNc1cc(C(F)(F)F)nc(-c2ccccn2)n1 | 113 |
| Nc1ccccc1N=CC1=C(O)CC(c2ccccc2)CC1=O (stereo unspecified) | 103 |
| Cc1cc(S(=O)(=O)Nc2cc(Br)c3oc4c(c3c2)C(=O)CCC4)ccc1Cl | 101 |
| CCOC(=O)C(C)Oc1cc2oc(=O)cc(-c3ccccc3)c2cc1Cl (stereo unspecified) | 100 |
| Cc1ccc(C(C)n2cc(C(=O)NCC3CCCO3)nn2)cc1 (stereo unspecified) | 94 |
| Cc1ccc(C2SC(=O)NC3=C2C(=O)c2ccccc23)cc1 (stereo unspecified) | 104 |
| O=C(NCc1ccc(Cl)cc1)c1cc2ccccc2nc1Cl | 84 |
| CCOC(=O)c1cnn(-c2ccc(C(C)C)cc2)c1C1CCN(C(=O)OC(C)(C)C)CC1 | 103 |
| c1ccc2c(SCc3cn4ccccc4n3)nncc2c1 | 91 |
| Clc1cccc(OCCN2CCOCC2)c1 | 101 |
| C/C(=N\O)C(=O)c1ccc(Br)cc1 | 97 |

Laid out differently: two of the compounds above
CNC(=O)c1ccccc1S(=O)c1cccc2cccc(C(=O)O)c12 (stereo unspecified)
  VACV E9 pol inh: 109
Cc1ccn2cc(-c3cccc(Cl)c3)nc2c1
  VACV E9 pol inh: 100

(listing goes on)
| smiles | VACV E9 pol inh |
| --- | --- |
| Cc1cccc(-c2nc(C)c(CCNC(=O)C(C)(C)C)s2)c1 | 100 |
| CC1(C)CC(=O)c2cc(C#N)c(SCc3ccccc3)nc2C1 | 98 |
| CC(C)CC1(C(=O)O)NC(c2ccccc2O)C2C(=O)N(C(C)C)C(=O)C21 (stereo unspecified) | 100 |
| N=C1c2ccccc2CN1c1ncc(C(F)(F)F)cc1Cl | 99 |
| Cc1cccc(N2C(=O)CC(Sc3nccc(C)n3)C2=O)c1 (stereo unspecified) | 100 |
| O=c1[nH]c(=O)n(-c2ccc(F)cc2)c(O)c1C=Nc1ccccc1 | 100 |
| Cc1ccc(C(=O)O)cc1S(=O)(=O)NCc1ccco1 | 94 |
| CC(=O)N1c2ccccc2N=C(c2ccc(C)cc2)CC1c1ccccc1 (stereo unspecified) | 100 |
| CCCc1nc2ccccc2n1CCC | 100 |
| CC1CCN(C(=O)CCCC(=O)O)CC1 | 101 |
| O=C1S/C(=C\c2ccc(Cl)cc2)C(=O)N1Cc1ccccc1 | 100 |
| Clc1cccc(NCc2cccc3c2CN(CC2CCCO2)C3)c1 (stereo unspecified) | 101 |
| CCC(N)CC12CC3CC(CC(C3)C1)C2 (stereo unspecified) | 99 |
| O=c1c2[nH]c3ccccc3c2ncn1CCCN1CCCC1 | 94 |
| CC(C)OC(=S)Nc1cccc(Cl)c1 | 93 |
| CCOC(=O)N1CC(=O)Nc2ccc(Br)cc2C1c1ccccc1 (stereo unspecified) | 96 |
| O=C(NCCSc1nnnn1-c1ccccc1)Nc1ccccc1 | 99 |
| CCC(=O)NCCSc1c(C)[nH]c2ccccc12 | 92 |
| O=C(O)COCC(=O)Nc1ccc(Br)cc1 | 96 |
| O=C(/C=C/c1cccs1)NCCCN1CCOCC1 | 108 |
| CC1(C)Cc2ccccc2-c2nc(-c3ccccc3)n(CCO)c(=O)c21 | 100 |
| CCOC(=O)c1[nH]c(C(=O)O)c(C(=O)OCc2ccccc2)c1CCC(=O)O | 101 |
| CCCCc1nc(OCC(=O)c2ccccc2)c(C#N)c2c1COC(C)(C)C2 | 99 |
| O=C1CN(C(=O)c2ccccc2)C(c2ccccc2)c2cc(F)ccc2N1 (stereo unspecified) | 93 |
| O=C(c1cc(-c2ccccc2O)no1)N1CCOCC1 | 98 |
| O=C(COC(=O)C12CC3CC(CC(C3)C1)C2)Nc1cc(F)ccc1F | 100 |
| Cc1ccc(/C(O)=C2\C(=O)C(=O)N(C)C2c2ccccc2)cc1 (stereo unspecified) | 97 |
| C[C@]12CC[C@@H]3c4ccc(O)cc4CC[C@H]3[C@@H]1CC[C@@H]2O | 100 |
| COc1ccc(C(CC(=O)O)N2Cc3ccccc3C2=O)cc1 (stereo unspecified) | 90 |
| CCN(CC)C(=O)COCC1CCCN2CCCCC12 (stereo unspecified) | 100 |
| C=CCNc1nc(Nc2ccc(-c3nc4ccccc4o3)cc2)nc(N2CCOCC2)n1 | 100 |
| O=C(CC(=O)NCc1ccc(Cl)cc1)NCc1ccc(Cl)cc1 | 102 |
| NC(=O)NO | 100 |
| CC(C)C(NC(=O)c1ccc(F)cc1)C(=O)O (stereo unspecified) | 102 |
| CC(C)(C)C1CCC(C(=O)OCC(=O)N2CCOCC2)CC1 (stereo unspecified) | 108 |
| COc1ccccc1CNC(=O)c1cc(S(=O)(=O)N2CCCC(C)C2)ccc1F (stereo unspecified) | 100 |
| N=C1SCC(=O)N1c1nccs1 | 100 |
| O=C(CCN1CCOCC1)NC=Nc1cccnc1 | 100 |
| Cc1oc(-c2ccccc2Cl)nc1CSCC(=O)N1CCCC1 | 92 |
| Cc1cc(C)c2c(N)c(C3=NC(C)(C)Cc4ccccc43)sc2n1 | 100 |

Structures shown so far containing two or more sulfur atoms, in the order listed:
| smiles | VACV E9 pol inh |
| --- | --- |
| Cc1ccccc1Cn1cc(S(=O)(=O)CC(=O)Nc2nccs2)c2ccccc21 | 95 |
| CCN(CC)c1ncc2c(=S)[nH]c(=S)[nH]c2n1 | 103 |
| C=CCN1C(=S)SC2CS(=O)(=O)CC21C (stereo unspecified) | 98 |
| NCCSSCCN | 99 |
| c1ccc(C(c2ccccc2)N2CC(Sc3nc4ccccc4s3)C2)cc1 | 101 |
| CC1CCc2ccc(F)cc2N1S(=O)(=O)c1cccs1 (stereo unspecified) | 98 |
| N=C1SCC(=O)N1c1nccs1 | 100 |

Some of the compounds tested, so the mix of outcomes need not match the whole.
